PrP UTR inh – inhibition of PrP 5' UTR reporter expression; cell-based PrP 5' UTR mRNA reporter, plate reader; inhibition, % (no concentration beside the values); actives 0.35% (n = 340,000); AID 488862;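 active = every replicate at 50% or more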;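 note: 0 = median of the neutral control wells; tested in H4 reporter cells; numbers are from one replicate; inactives centre near -14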
Bead autofluor – flagged as autofluorescent in microsphere protease counterscreen. fluorescence intensity (no concentration beside the values). AID 624483. actives 3.1% (n = 360,000). compound autofluorescence counterscreen, microsphere flow cytometry; stronger effect = higher value;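 active = at least 3 SD above the mean of all compounds, about 16000 in these data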;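 note: 100 nL of 1 mM stock went into each well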
Mtb hypoxia inh – reduces hypoxia-regulated biosensor signal in M. tuberculosis | fluorescence inhibition, % (concentration not given with the values) | actives 0.1% (n = 300,000) | AID 1159583 | M. tuberculosis hypoxia-regulated fluorescent reporter, fluorescence;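 active = 35 to 45% if threefold the growth effect, above 45% if 1.5-fold the growth effect; inactive = the rest, general growth blockers included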;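 note: wells of about 50 µL received 100 nL stock; 0% = vehicle wells and 100% = reference inhibitor wells; whole bacteria with a GFP reporter of the hypoxia response; strong numbers were not always called active; many hits fall short of the cut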
RN4220 kill – S. aureus RN4220 growth inhibition; OD600, 16 h; inhibition, % (no concentration beside the values); actives 0.33% (n = 330,000);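 active = z-score of -3 or lower and OD600 up to 0.18 on both plates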;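 note: plate controls were untreated cells for no effect and reference antibiotic for full effect; stock transfer was 100 nL into about 80 µL; one replicate is shown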
Sa ugtP lethal – growth inhibition of S. aureus ugtP deletion strain. S. aureus RN4220 ugtP deletion, OD600 growth, 16 h; some inactives read as strong as hits. growth inhibition, % (test concentration not listed). actives 0.54% (n = 330,000);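 active = z-score under -3 and OD600 up to 0.15 on both plates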;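 note: plate controls were untreated wells for no effect and antibiotic for full effect; wells of about 80 µL received 100 nL stock; the first replicate is given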
BJeLR viability – kills HRASV12-expressing BJeLR cells; BJeLR (HRASV12) viability, CellTiter-Glo ATP luminescence, 48 h; reference of the scale not given here; AID 1554; actives 0.17% (n = 300,000); inhibition, % (no concentration beside the values);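 active = replicate mean above 50%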;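 note: 50 nL library stock added to about 25 µL; numbers are from one replicate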
Mtb hypoxia inh growth – also measured in Mtb hypoxia inh; calls as there; growth inhibition, %; measured here: M. tuberculosis growth (absorbance);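 0% = vehicle and 100% = reference antibiotic; read after six days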
Starred values were filed as active, the others as inactive; x = no result given.

Each structure is followed by: PrP UTR inh, Bead autofluor, Mtb hypoxia inh, Mtb hypoxia inh growth, RN4220 kill, Sa ugtP lethal, BJeLR viability
1: COc1ccccc1N1CCN(C(=O)CSc2nnc(NC(=O)C(C)C)s2)CC1
→ -20, 3170, -13, -6, 12, 5, x
2: COc1ccc2[nH]cc(CCNC(=O)Nc3ccccc3C)c2c1
→ -9, 2921, -2, -4, 1.8, 5, 0
3: CCCn1c(SCCC(=O)O)nc2ccccc21
→ -2, 4341, 5, -4, 0.2, 3, -5
4: CCc1ccc(N(CC(=O)N2CCOCC2)S(C)(=O)=O)cc1
→ -27, 3812, 5, 9, 0.7, 13, 0
5: COc1cc(Cl)c(C)cc1NC(=O)CN(C)Cc1cccc(OC)c1OC
→ -14, 4572, 4, 12, 4.7, 1, 6
6: O=C(NCC1CCCO1)c1ccc(Cn2c(=S)[nH]c3ccccc3c2=O)cc1 (stereo not drawn)
→ -1, 3124, 7, 12, 2.2, 4, 1
7: Cc1cccc(Oc2coc3cc(O)ccc3c2=O)c1
→ -22, 4124, -8, -3, 0.5, 2, 16
8: CCCCn1c(=O)n(CC(=O)Nc2ccc(C)c(Cl)c2)c(=O)c2c1ncn2Cc1ccco1
→ -9, 2873, x, x, -4.9, 12, -6
9: CC(=O)Nc1cc2c(c([N+](=O)[O-])c1C)C(C)(C)CC2(C)C
→ 2, 2838, -4, 2, 9.9, -5, x
10: Cc1onc(-c2c(F)cccc2Cl)c1C(=O)N1CCCCC1
→ -22, 5716, 15, -3, 4.0, 10, 3
11: CCOCCCn1c(=O)c2ccccc2n2c(=S)[nH]nc12
→ -9, 3785, 4, 2, 3.6, 0, -5
12: CCN(CC)c1ccc(C=NNC(=O)CC(C)C)cc1
→ x, x, 6, 7, 7.8, 8, x
13: COc1ccc(Cn2c(=O)[nH]c3cc(C(=O)NC4CCCC4)ccc3c2=O)cc1
→ -16, 5917, 4, -7, -1.1, -2, -8
14: O=C(NCc1c[nH]c2ccccc12)c1ccccc1
→ -21, 5675, 13, 0, 5.0, -1, 8
15: Cc1cnc(C(=O)OCC(=O)Nc2ccc(C)c(S(=O)(=O)N3CCCCC3)c2)cn1
→ -6, 2927, -6, 5, 1.0, 8, -3
16: CC1(C)CC(=O)C(C(C2=C(O)CC(C)(C)CC2=O)c2ccc(Br)s2)C(=O)C1 (stereo not drawn)
→ -10, 2280, 1, 12, 6.9, -4, 10
17: COC(=O)c1c(C)oc2c1cc(NS(=O)(=O)c1ccc(C(=O)O)cc1)c1ccccc12
→ -33, 5876, 13, 6, 4.8, 11, 4
18: CCOC(=O)CC(=O)CSc1nc(CC)c(C)cc1C#N
→ -21, x, 3, 1, 11, 10, -11
19: COC(=O)c1ccc(NC(=O)c2cccc(N3C(=O)CCC3=O)c2)cc1
→ -2, 6511, 10, -4, 1.3, 5, x
20: COc1ccc(CN(C)C(=O)C2CSC3(C)CCC(=O)N23)cc1OC (stereo not drawn)
→ -2, 4206, 5, 1, 4.4, 2, x

Compounds listed so far containing an aryl thioether with sulfur outside any ring, in the order listed:
Each structure is followed by: PrP UTR inh, Bead autofluor, Mtb hypoxia inh, Mtb hypoxia inh growth, RN4220 kill, Sa ugtP lethal, BJeLR viability
1: COc1ccccc1N1CCN(C(=O)CSc2nnc(NC(=O)C(C)C)s2)CC1
→ -20, 3170, -13, -6, 12, 5, x
3: CCCn1c(SCCC(=O)O)nc2ccccc21
→ -2, 4341, 5, -4, 0.2, 3, -5
18: CCOC(=O)CC(=O)CSc1nc(CC)c(C)cc1C#N
→ -21, x, 3, 1, 11, 10, -11

Returning to the listing, repeating the two entries before the break.
Each structure is followed by: PrP UTR inh, Bead autofluor, Mtb hypoxia inh, Mtb hypoxia inh growth, RN4220 kill, Sa ugtP lethal, BJeLR viability
19: COC(=O)c1ccc(NC(=O)c2cccc(N3C(=O)CCC3=O)c2)cc1
→ -2, 6511, 10, -4, 1.3, 5, x
20: COc1ccc(CN(C)C(=O)C2CSC3(C)CCC(=O)N23)cc1OC (stereo not drawn)
→ -2, 4206, 5, 1, 4.4, 2, x
21: O=C(NCC(=O)N(c1cccc(F)c1)C(C(=O)NC1CCCC1)c1ccncc1)c1cccs1 (stereo not drawn)
→ -23, 3499, 9, -4, 1.7, 1, -3
22: COc1ccc(-c2nnc(C(C)Nc3cccc(C(=O)NC4CC4)c3)o2)cc1 (stereo not drawn)
→ -9, 4931, -1, -3, 3.4, 7, x
23: O=C(Cn1nnc(-c2ccccc2)n1)c1ccccc1
→ -13, 5291, 8, 17, 27, 17, 0
24: N#CCSCC(=O)Nc1ccc(Cl)cc1
→ -4, 10054, 0, 15, -1.3, 2, -8
25: Cc1c(C(=O)N2CCOCC2)sc(NC(=O)C(C)C)c1C#N
→ -15, 5125, -5, -3, 6.9, 0, 1
26: COCCN(C(=O)CSc1nc2nc(C)cc(C)n2n1)c1c(N)n(Cc2ccccc2)c(=O)[nH]c1=O
→ 5, 4554, 8, -3, -1.8, 2, 5
27: CCC(C)NC(=O)c1ccc(C2SCC(=O)N2Cc2ccccc2)cc1 (stereo not drawn)
→ -31, 3369, -7, -4, -9.4, -9, -5
28: c1cncc(-c2nc(-c3ccco3)cs2)c1
→ -1, 2488, 14, 13, -2.8, -7, 2
29: C/C=C(\C)C(=O)N1CC2(CC(c3cccc(NC(=O)CCCCC)c3)=NO2)C[C@@H]1C(N)=O (stereo partly drawn)
→ -19, 4170, x, x, x, x, 4
30: COC(=O)c1cc2c(ccn2-c2ccc(F)cc2)n1Cc1ccc(OC(C)=O)cc1
→ -33, 2333, 2, 1, 1.4, 78, 3
31: Cc1ccc(C2OC34CCCCCC3C(C#N)(C(=N)O4)C2(C#N)C#N)cc1 (stereo not drawn)
→ 2, 2401, 3, 2, 5.7, 1, 1
32: CCCC(C(=O)NCc1ccco1)N(C(=O)CNS(=O)(=O)c1ccc(Cl)cc1)C1CCCC1 (stereo not drawn)
→ -1, 2666, x, x, 1.1, -9, 2
33: O=C(C1CCCN(S(=O)(=O)c2ccc(Br)s2)C1)N1CCN(c2ccccc2)CC1 (stereo not drawn)
→ -16, 6578, 16, 0, -0.2, -1, 1
34: O=C(CNC(=O)c1ccccc1)OCC(=O)c1cccs1
→ -9, 5196, 2, 3, 0.1, 6, -7
35: O=C(C[n+]1ccc(C(=O)N/N=C/c2ccc(Cl)cc2Cl)cc1)c1ccccc1
→ -15, 11793, x, x, x, x, 2
36: CCc1nnc(NC(=O)CCC(=O)NCCc2ccc(OC)c(OC)c2)s1
→ -35, 2217, -5, -6, 6.5, 8, -8
37: C/C(C=NNC(=O)Cc1cccs1)=C\c1ccco1
→ x, x, 9, 6, 3.3, -10, x
38: CC1(C)CC(=O)C2=C(C1)N(Cc1cccnc1)C(=O)C2(NC(=O)c1cccnc1)C(F)(F)F (stereo not drawn)
→ -8, 9303, 6, -1, 1.6, -2, -3
39: COc1cccc(CN(C)C(=O)c2cc(COc3c(F)cccc3F)on2)c1
→ -16, 3327, 17, 11, 9.4, 6, 0
40: COc1cc(NC(=O)CN2C(=O)CN(C)C2=O)c(C)cc1[N+](=O)[O-]
→ -18, 4537, 6, -1, 0.3, 9, 1
41: C=CCNC(=S)NNc1nc2sc3c(c2c(=O)[nH]1)CC(C)(C)OC3
→ -16, 3185, 5, -4, 3.3, -6, 9
42: NC(=O)[C@@H]1CC2(CC(c3cccc(NC(=O)CC(c4ccccc4)c4ccccc4)c3)=NO2)CN1C(=O)c1ccc(Cl)cc1 (stereo partly drawn)
→ -2, 3857, x, x, x, x, -2
43: CSc1nc2ccc(NS(=O)(=O)c3ccc4c(c3)OCCO4)cc2s1
→ -16, 2500, 9, 11, -11, 41, -9
44: Cc1ncsc1CCSc1n[nH]c(=O)n1-c1ccccc1
→ -40, 9627, 6, 5, 6.3, 5, 14
45: CCOC(=O)c1[nH]nc2c1C(=O)N(Cc1ccccc1)C2=O
→ -7, 4302, x, x, 11, 6, -16
46: Cc1oc2c(C)c(O)ccc2c(=O)c1-c1ccc2ccccc2n1
→ -26, 19935*, -6, -2, 1.9, -8, 0
47: Oc1ccc(C=NN2CCN(C3c4ccccc4-c4ccccc43)CC2)c(O)c1
→ x, x, 9, 9, -1.9, 9, x
48: Cc1ccc(F)c([C@H]2[C@@H]3C=CCC[C@@]3(C)C(=O)N2Cc2ccccc2)c1
→ -36, 3021, x, x, x, x, 3
49: CCC(c1nnc(SCC(=O)Nc2cc(S(C)(=O)=O)ccc2Cl)n1Cc1ccccc1)N(C)C (stereo not drawn)
→ -10, 5642, 6, 19, 1.2, 3, -9
50: N#CCc1ccc(OC(=O)c2ccncc2)cc1
→ -9, 5873, 18, -4, 2.3, 11, 3
51: C#CCOCCOCCOCCNc1nc(N2CCN(C(=O)Cn3cc(CC(C)O)nn3)CC2)nc(N2CCN(C(=O)C(C(C)O)n3cc(CCCCN)nn3)CC2)n1 (stereo not drawn)
→ x, x, 19, 10, 3.0, 1, x
52: CN1C(=O)C(CC(=O)NCCc2ccccc2)N(NC(=O)c2cccc(F)c2)C1=S (stereo not drawn)
→ -6, 4944, 1, 5, -2.4, 16, 16
53: COc1cccc(CNC2CN3CCC2CC3)c1OC (stereo not drawn)
→ -6, 9540, 14, 0, 0.0, 4, 3
54: Cc1ccc(OCC(=O)N2CCCC(N3CCN(c4ccc(F)cc4)CC3)C2)cc1 (stereo not drawn)
→ -9, 7227, 10, 9, -0.9, 4, -1
55: CCc1nc2cc(Cl)c(Cl)cc2nc1CC
→ -25, 4282, 6, -2, 6.4, 17, -5
56: Cc1nn(Cc2ccccc2)c(C)c1NC(=O)Cn1nc([N+](=O)[O-])c(Cl)c1C
→ -9, 9554, 3, -1, 4.5, 4, 2
57: CCn1nnnc1SCCSc1nnnn1CC
→ -33, 9348, -7, 5, 2.3, -1, 4
58: COc1ccccc1CNC(=O)CSc1nc2nc(C)cc(C)n2n1
→ 0, 10911, -2, 4, 2.2, 0, 1
59: CCCCNc1ccc(C(CC(N)=O)NC(=O)c2cc(C)cc(C)c2)cc1[N+](=O)[O-] (stereo not drawn)
→ -18, 3870, 22, 14, 2.3, 0, -3
60: CCCC(=O)C1C(=O)NC(=O)NC1=O
→ 9, 2882, x, x, -16, -4, -1
61: CC(OC(=O)c1cccs1)C(=O)NCc1cccs1 (stereo not drawn)
→ -7, 9250, 7, 4, 11, 1, -7
62: CCCCOC(=O)Nc1nnc(Cc2ccc(Cl)cc2)s1
→ -16, 3254, 6, 8, 6.9, 13, -4
63: COc1cc(C(=O)COC(=O)C2CC2(Cl)Cl)cc(OC)c1OC (stereo not drawn)
→ -17, 4217, 14, 2, 0.8, 1, x
64: O=C(NCC(c1ccco1)N1CCc2ccccc21)C(=O)Nc1ccccc1F (stereo not drawn)
→ -12, 5503, 10, 7, -2.0, 18, 5
65: O=C(CN1CCN(S(=O)(=O)c2ccc(Br)cc2)CC1)Nc1ccc(F)cc1
→ -32, 2775, x, x, 0.0, 2, -10
66: OC(CCNCCc1c[nH]c2ccccc12)C(F)(F)F (stereo not drawn)
→ -12, 4531, 5, 11, 0.8, 2, 5
67: COc1cc(C)ccc1OCc1cc(C(=O)N2CCCCCC2)no1
→ -4, 5296, -9, 0, 4.0, 2, -3
68: CCCN(CCC)CCNC(=O)C1c2ccccc2C(=O)N2CCc3ccccc3C12 (stereo not drawn)
→ 8, 3717, -4, -9, 0.0, 8, 0
69: CCn1c(NC(=O)c2cccs2)nc2ccccc21
→ -30, 5948, -16, -2, 3.5, -7, 11
70: Cc1cc(=O)nc2c3ccccc3n(CC(=O)NCCC3=CCCCC3)n12
→ -14, 5881, 8, 8, 3.1, 2, -11
71: CCc1nc(-c2ccc(OC)c(OC)c2)cc2cc(OC)c(OC)cc12
→ -22, 2150, 11, 10, 9.2, -3, 7
72: COc1cc2c(cc1OC)C(c1cc3cc4c(cc3[nH]c1=O)OCO4)N(C(=O)C(C)C)CC2 (stereo not drawn)
→ -13, 10904, 4, 4, 4.1, 6, 1

A few values from the results shown:
Reading for no. 7 under RN4220 kill: 0.5
Reading for no. 38 under BJeLR viability: -3
